Beta cell apopt – blocks beta cell apoptosis. INS-1E cytokine-induced death, ATP luminescence, 48 h; percent of positive-control rescue, neutral wells zero. protection from apoptosis, % (test concentration not listed). AID 435005. 300,000 compounds, 0.8% hits;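 active = all replicates at 75% or more, or half of them and the mean; inconclusive = half reach 75% but not the mean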;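 note: 0% = cytokine-treated negative control wells and 100% = positive control rescue; higher means more ATP so stronger rescue from cytokine killing; wells of about 40 µL received 100 nL stock; the first replicate is given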
Calb FLC – affects C. albicans growth with fluconazole | C. albicans CaCi-2 (fluconazole-resistant clinical isolate) + fluconazole, Alamar Blue growth, 48 h | growth inhibition, % (concentration not given with the values) | 300,000 compounds, 0.57% hits;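 active = most replicates above 75%; inconclusive = exactly half above 75%; inactive = most below 75%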;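 note: all wells also contain fluconazole at 8 µg/ml as a sub-toxic cotreatment; 0% = median of DMSO wells and 100% = median of geldanamycin control wells; wells of about 8 µL received 7.5 nL stock; the first replicate is given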
B2AR ag – activates human beta-2 adrenergic receptor causing internalization | Am2.2-beta2AR cells, FAP receptor internalization, flow cytometry; reference of the scale not given here | P07550 | response, % (no concentration beside the values) | AID 504454 | 340,000 compounds, 0.43% hits;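 active = response above a set limit, near 3 SD of response in nonfluorescent compounds, cut at about 42% in these data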;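 note: stock transfer was 100 nL into about 11 µL; a reference agonist was the positive control; negative values mostly stem from fluorescent compounds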
Target sequence (P07550 whole entry, looked up): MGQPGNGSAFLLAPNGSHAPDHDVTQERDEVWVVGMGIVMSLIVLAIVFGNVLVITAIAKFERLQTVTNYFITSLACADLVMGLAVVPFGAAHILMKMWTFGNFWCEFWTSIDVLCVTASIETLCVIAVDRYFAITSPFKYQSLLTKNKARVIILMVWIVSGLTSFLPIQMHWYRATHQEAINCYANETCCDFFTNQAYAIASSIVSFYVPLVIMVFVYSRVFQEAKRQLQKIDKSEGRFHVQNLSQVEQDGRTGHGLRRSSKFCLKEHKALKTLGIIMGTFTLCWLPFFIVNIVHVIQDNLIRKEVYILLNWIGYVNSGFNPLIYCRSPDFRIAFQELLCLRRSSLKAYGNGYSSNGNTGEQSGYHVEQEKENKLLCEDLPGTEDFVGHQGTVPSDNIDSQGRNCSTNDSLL
A1 inh – inhibitors of the anti-apoptotic protein A1, read as caspase activation; MEF A1-2A-BIM cells, Caspase-Glo 3/7 luminescence, 3 h; percent of clofoctol response, vehicle zero; caspase activation, % (test concentration not listed); 330,000 compounds, 0.066% hits;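 active = over half of replicate activation scores above 10%, or exactly half above 10 with the replicate mean above 10; inconclusive = replicate mean below 10 yet half the replicates above 10; inactive = over half of replicates below 10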;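 note: wells of about 30 µL received 50 nL stock; many hits fall short of the cut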
RanGTP-Impb inh – inhibitors of RanGTP-importin-beta interaction, primary screen, biochemical, FRET, CFP-Ran, YFP-importin-beta, homogeneous; 300,000 compounds, 1.1% hits; AID 2216; cell-free CFP-Ran/YFP-importin-beta FRET ratio; inhibition, % (concentration not given with the values);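 active = most replicates above 15%; inconclusive = exactly half above 15%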;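 note: 0% = DMSO wells and 100% = Ran loaded with GDP instead of GTP; wells of about 40 µL received 100 nL stock; the first replicate is given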
LANA-H2B inh – blocks KSHV LANA binding to histone H2A/H2B. Q9QR71. cell-free LANA-H2A/H2B peptide, fluorescence polarization. inhibition, % (test concentration not listed). 320,000 compounds, 0.6% hits. AID 2629; in the data active = inhibition mostly above about 10%, no sharp cut-off; inactive = mostly below about 6.7%;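 note: stock transfer was 7.5 nL into about 10 µL; 0% = median of vehicle wells and 100% = median of positive control wells; one replicate is shown; the record names a cut of 25% in any replicate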
T cruzi inh – blocks replication of Trypanosoma cruzi; inhibition, % (test concentration not listed); AID 1885; T. cruzi beta-gal in NIH3T3, luminescence, 90 h; 300,000 compounds, 1.4% hits;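 active = mean inhibition across valid replicates above about 55%, limit read from the data; inconclusive = mean below that limit but half or more replicates reach it; inactive = mean below it, under half of replicates reach it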;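 note: signal also drops with host cell toxicity which is not excluded here; 0% = plate median of DMSO wells and 100% = zero luminescence signal; higher percent means less beta-gal luminescence so fewer parasites; stock transfer was 50 nL into about 50 µL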
UCH37 inh – human UCH37 deubiquitinating enzyme inhibition; inhibition, % (test concentration not listed); Q9Y5K5; AID 588478; purified proteasome/UCH37, Ub-AMC cleavage fluorescence; 330,000 compounds, 0.33% hits;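 active = mean of two replicates above 20%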;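 note: 0% = compound-free wells with enzyme and 100% = wells lacking proteasome; stock transfer was 100 nL into about 20 µL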
Target sequence (Q9Y5K5 whole entry, looked up): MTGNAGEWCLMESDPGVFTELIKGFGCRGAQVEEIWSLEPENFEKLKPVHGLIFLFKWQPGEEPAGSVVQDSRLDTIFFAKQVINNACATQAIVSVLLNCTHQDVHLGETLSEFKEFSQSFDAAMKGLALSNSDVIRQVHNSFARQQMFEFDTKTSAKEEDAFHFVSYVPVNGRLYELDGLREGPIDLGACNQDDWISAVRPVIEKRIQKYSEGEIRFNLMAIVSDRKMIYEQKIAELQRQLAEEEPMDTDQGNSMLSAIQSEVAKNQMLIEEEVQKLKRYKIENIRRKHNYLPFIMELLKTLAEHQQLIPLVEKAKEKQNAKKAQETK
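Material: human UCH37 enzyme supplied as purified proteasome complex / Amount: 0.15 nM proteasome as dispensed / Buffer or medium: pH 7.4 Tris-HCl (50 mM) with ovalbumin, ATP-MgCl2, DTT / Times: preincubation 30 min, reaction 25 min, room temperature / Technique: AMC fluorescence from Ub-AMC cleavage, excitation 355 nm, emission 460 nm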
Numbers without * were called inactive; i = inactive; u = inconclusive; x = no result given.

SMILES	Beta cell apopt	Calb FLC	B2AR ag	A1 inh	RanGTP-Impb inh	LANA-H2B inh	T cruzi inh	UCH37 inh
Cc1ccc(-n2nc3c(=O)n(CC(=O)NCCc4cccs4)nc(C)c3c2C)cc1	0	-3	-3	-0.5	1.8	0.1	-12	2.6
CCCCC(=O)Nc1ccc(C(=O)NNC(=O)c2ccc(C)c(Br)c2)cc1	2	6	0	0.6	8.2	-0.8	-3	2.4
CN(C)S(=O)(=O)c1cccc(C(=O)NCC2(N3CCOCC3)CCCCC2)c1	1	-1	-7	0.0	1.7	-0.2	-6	-0.2
Cc1cccc(OC(C)C(=O)N/N=C\c2ccncc2)c1 (stereo not given)	-2	-5	5	0.6	3.4	0.1	-24	x
O=S(=O)(O)c1nc2ccccc2n1Cc1ccccc1	-4	-1	-6	0.0	-1.0	-9.3	12	1.2
CN(Cc1ccccc1)c1ccc(S(=O)(=O)N2CCC(C(=O)O)CC2)cc1[N+](=O)[O-]	-8	-5	0	1.8	x	3.8	5	7.0
C=CCn1c(CCNC(=O)c2ccccc2F)nnc1SCC(=O)Nc1nc(C)cs1	-2	1	7	0.5	-4.4	2.4	x	3.9
COCCOC(=O)c1c(C)n(C)c2ccc(OC(=O)c3c(OC)cccc3OC)cc12	2	-5	13	0.1	4.2	0.9	15	3.1
Cc1ccc(-c2ccnc(=S)[nH]2)cc1	-8	-9	0	-0.1	1.0	0.0	16	4.4
Cc1ccc(C(=O)NCC(=O)Nc2ccc3c(c2)CCC3)cc1	3	x	2	-0.3	x	2.2	x	0.8
CCC(=O)N1CCc2cc(S(=O)(=O)NCCN3CCCCC3CC)ccc21 (stereo not given)	-3	1	-25	0.2	-0.8	-2.2	2	1.5
C=CCOc1cccc(C2/C(=C(/O)c3ccc(C)cc3)C(=O)C(=O)N2CCN2CCOCC2)c1 (stereo not given)	0	-6	4	-0.3	-7.4	1.6	0	10
O=S(=O)(NNc1ncc(C(F)(F)F)cc1Cl)c1ccc(F)cc1F	-8	x	1	-0.3	x	3.0	x	1.0
CC(=O)Nc1nc(-c2ccc3c(c2)CC(C)N3C(=O)C2CC2)c(C)s1 (stereo not given)	7	-1	10	0.2	3.5	-3.4	7	-2.4
Nc1ccncc1N	-3	x	-7	-0.1	-0.4	4.7	-2	1.4
COc1ccc(N(CC(=O)NCc2ccc(F)cc2)S(=O)(=O)c2c(C)noc2C)cc1	1	22	-3	-0.6	-0.4	5.2	10	3.6
Cc1occc1C(=O)NNC(=O)Nc1ccc(F)cc1F	5	-24	2	-0.2	-1.8	-2.0	-1	4.3
CN(Cc1ccccc1)C(=O)CN1C(=O)NC2(CCCC2)C1=O	0	x	0	-1.3	x	-1.9	x	6.0
CN(C[C@H](Cc1ccccc1)N(C[C@H](Cc1ccccc1)N(CCC(C)(C)C)N=O)N=O)N=O	5	-17	4	0.2	-0.4	-2.5	31	x
CN(C)c1ccc(C(=O)NNC(=O)Nc2ccccc2)cc1	-7	-1	1	0.7	-3.5	-3.6	2	1.0
COc1ccc(CNC(=O)CCn2nc(C)c3c(C)n(-c4ccccc4)nc3c2=O)c(OC)c1	2	-9	0	0.2	2.1	2.5	-20	-2.0
CCc1ccc(CCC(=O)Nc2ccc(C(C)=O)cc2)o1	-7	-8	-2	0.4	-3.7	-2.0	0	2.8
O=C(COc1ccccc1)N(Cc1cccc(F)c1)C1CCS(=O)(=O)C1 (stereo not given)	-1	30	0	1.7	u	0.8	-12	5.4
N=c1sccn1CC(=O)NC(c1ccccc1)c1ccccc1	-4	u	7	0.3	0.6	3.1	-28	4.6
CC(=O)Oc1cc(O)c2c(c1)OC(c1ccc(OC(C)=O)c(OC(C)=O)c1)C(OC(C)=O)C2=O (stereo not given)	-2	-12	1	-1.1	2.8	-0.7	-4	6.7
COc1ccccc1CN1CC(C(=O)NC2(c3ccccc3)CC2)CCC1=O (stereo not given)	0	-6	4	0.6	1.2	0.7	-10	0.8
C=CCNC(=O)c1onc(CSc2cc(C)ccc2C)c1C(=O)O	-3	0	-13	-0.3	u	-3.3	0	5.6
CC(C)CC(=O)NC(NC(=S)Nc1cccc2cccnc12)C(Cl)(Cl)Cl (stereo not given)	-2	-2	2	0.0	5.7	1.3	-2	1.2
CCOc1ccccc1N(C(=O)CNC(=O)c1ccco1)C(C(=O)NC1CCCC1)c1cccnc1 (stereo not given)	-5	-4	-18	-0.7	-1.6	1.5	-10	0.6
CC(=O)Nc1ccc(NC(=O)COC(=O)c2ccco2)cc1	1	5	1	-0.1	2.1	2.9	-7	-1.2
COc1ccc(S(=O)(=O)N2CCC3(CC2)OCCN3S(=O)(=O)c2cccs2)cc1OC	1	8	-1	0.0	-4.3	9.5	9	3.3
C/C(=N\NC(=O)c1ccc(=O)[nH]n1)c1cccnc1	-7	4	10	0.7	2.5	2.7	-21	x
COc1cc(/C=N/NC(=O)c2ccc(CSc3nc4ccccc4[nH]3)cc2)ccc1O	7	5	13	1.5	-4.3	-4.0	10	x
O=C(CSc1cn(Cc2cccc(F)c2)c2ccccc12)NCc1ccc(F)cc1	3	-1	-6	0.2	-3.2	1.3	15	3.4
CS(=O)(=O)c1ccc(N2CCN(c3ccccn3)CC2)c([N+](=O)[O-])c1	-1	0	-9	0.2	-1.7	-1.9	-1	2.2
COc1ccc(C(=O)Cn2c(=O)oc3ccc(C)cc32)cc1	4	-2	-4	2.5	2.6	-5.2	1	4.4
COC(=O)c1sccc1NC(=O)Nc1ccccc1Cl	-2	20	3	-0.3	x	-2.7	x	0.2
COc1ccccc1Oc1ccc(S(=O)(=O)N2CCCC2)cc1	5	-23	13	0.3	-0.6	-3.7	10	1.4
O=[N+]([O-])c1cccc(/C=N/n2cnnc2)c1O	-11	-4	13	-0.1	-2.4	0.4	-1	x
COc1ccc2c(c1)cc1c(=O)n(CC(=O)NC(C)CCc3ccccc3)nc(C)n12 (stereo not given)	-6	6	6	-0.3	4.9	4.6	-8	-5.5
CN(C)CCNc1nc(-c2ccco2)c2c(c1C#N)CC(C)(C)OC2	6	-33	0	0.2	x	0.2	11	-117
CC(=O)Nc1ccc(NC(=O)C(C)OC(=O)CCCc2c[nH]c3ccccc23)cc1 (stereo not given)	-3	17	-4	0.6	1.4	1.7	-12	0.3
Cn1ccsc1=NC(=O)c1ccc(S(C)(=O)=O)cc1	x	-5	-10	-5.6	-0.2	-0.4	-5	7.7
O=S(=O)(/N=C(/Nc1cccc2ccccc12)c1ccccc1)c1ccc(F)cc1	3	23	4	0.1	-2.6	-0.2	17	1.2
COCCSc1nc(N)c(NC(=O)c2ccco2)c(=O)[nH]1	x	-3	3	2.4	-3.6	-2.9	-14	-1.1
CSc1ccccc1C(=O)Nc1cc2c(cc1C(=O)O)OCCCO2	-3	-7	4	0.1	-1.2	-2.9	-23	5.6
CCOCCCNC(=O)C1(O)c2cc(Br)ccc2NC(=O)N1c1cccc(OC)c1 (stereo not given)	-4	3	0	-3.4	1.0	3.7	-8	1.0
CCCCNS(=O)(=O)c1ccc2nc(SCC(N)=O)[nH]c2c1	-2	4	6	-2.0	3.7	1.4	-6	0.2
COc1ccc(C(C(=O)NC2CCCC2)N2CCc3ccccc32)cc1 (stereo not given)	x	10	0	0.1	2.8	-2.7	38	1.5
O=[N+]([O-])c1ccc(OC/C=C2\Oc3ccc([N+](=O)[O-])cc3C2N2CCOCC2)cc1 (stereo not given)	-2	-4	-1	0.5	-1.1	-2.1	23	5.2
Cc1c(NCc2cc(Cl)cc(Cl)c2O)c(=O)n(-c2ccccc2)n1C	x	5	4	-0.5	-7.3	0.9	-6	3.9
O=C(C[n+]1ccn(CCCNP2(=O)C=C(c3ccccc3)OC(c3ccccc3)=C2)c1)c1cccs1	1	50	-15	-0.3	-1.8	1.4	16	0.6
COc1ccc(N=C(C)C2=C(O)c3ccccc3C2=O)cc1	-5	-4	9	-5.0	2.9	-1.3	3	-0.8
CC(C)(C)NC(=O)C(Cc1ccccc1)NS(=O)(=O)c1ccc2c(c1)CCC(=O)N2 (stereo not given)	1	6	-5	-0.7	5.6	-1.5	7	2.0
O=C(CCSCCc1ccccn1)Nc1c(F)cc(F)cc1Br	-3	1	-15	0.9	2.9	1.2	-9	4.6
O=C(Nc1ccc(Cl)cn1)c1cc2c(s1)-c1ccccc1OC2	2	22	-5	0.8	58*	-2.6	11	i
Cc1ccc(S(=O)(=O)NCC(=O)N(CC(=O)NCc2ccco2)C2CCCC2)cc1	1	10	-5	0.1	3.7	4.3	7	3.9
N#CC1=C2SCN(Cc3ccco3)CN2C(=O)CC1c1c(F)cccc1Cl (stereo not given)	-8	-5	-1	0.0	0.7	0.9	4	3.8
O=C(Nc1ccc2c(c1)OCO2)C1CCN(S(=O)(=O)c2cccs2)CC1	5	-11	4	1.3	3.9	-4.6	6	2.7
CS(=O)(=O)N1CCc2cc(C(=O)O)ccc21	-6	0	10	-0.2	3.9	-3.9	-24	-2.6
Additional structures.
SMILES	Beta cell apopt	Calb FLC	B2AR ag	A1 inh	RanGTP-Impb inh	LANA-H2B inh	T cruzi inh	UCH37 inh
OCCNCCCCOc1ccc(F)cc1	3	6	4	0.8	6.6	-2.3	6	0.3
Cc1cc(C)nc(SCc2nc3nc(C)cc(C)n3c2Br)n1	-12	10	-5	0.3	1.2	3.8	9	-113
CCCCCCN(C(=O)CCCCCN1C(=O)NC(c2ccc(-c3ccccc3)cc2)C(C(=O)OCc2ccccc2)=C1C)C(C)C(=O)NCCCC (stereo not given)	8	1	x	0.7	-0.3	-3.9	36	-1.0
N#Cc1ccc(Cn2c(=O)oc3ccccc32)cc1	-1	-5	10	1.2	8.3	-0.2	4	3.7
COc1ccc(NC(=S)NN2C(C)CCCC2C)cc1 (stereo not given)	-1	-1	-5	0.6	-1.1	-12	1	2.3
Cc1nc2ccccc2c(=O)n1CCCN1CCOCC1	-7	-8	1	-0.2	0.1	0.9	-20	1.0
COc1ccc(/C(O)=C2/C(=O)C(=O)N(CCN(C)C)C2c2ccc(C)cc2)cc1Cl (stereo not given)	-8	4	-5	0.0	-1.9	5.1	8	9.2
O=C(NCCCCc1ccccc1)Nc1cccc(F)c1	-1	3	-6	0.4	-0.1	4.6	24	3.4
C#CCNC(=O)C1=C[C@H](c2ccc3c(c2)OCO3)[C@@H](CCCO)[C@H](OCC)O1	2	15	-5	1.2	0.7	2.5	9	2.4
CC1=CS/C(=C(/C#N)C(=O)N2CCCCC2)N1c1ccccc1	2	-4	-5	0.1	-0.8	-3.8	-2	3.6
O=C(Cn1cc(C(=O)COc2ccccc2)c2ccccc21)NCc1ccco1	-1	-2	-8	0.3	-4.1	0.4	3	2.2

Exported with two lines to a compound: 2 of the compounds above
Screens in order – Beta cell apopt | Calb FLC | B2AR ag | A1 inh | RanGTP-Impb inh | LANA-H2B inh | T cruzi inh | UCH37 inh
O=C(NCCCCc1ccccc1)Nc1cccc(F)c1
    -1 | 3 | -6 | 0.4 | -0.1 | 4.6 | 24 | 3.4
N#Cc1ccc(Cn2c(=O)oc3ccccc32)cc1
    -1 | -5 | 10 | 1.2 | 8.3 | -0.2 | 4 | 3.7

Compound activity: PubChem BioAssay, several laboratories

An unsorted share of the library; overall some 4.3% were active at least once.
